# Sfp inh = inhibitors of Bacillus subtilis Sfp phosphopantetheinyl transferase | Q9F4F7 | Biochemical Sfp PPTase activity, qHTS | Potency, µM, without a hit: max response, negative = inhibition, actives largely listed as inhibitors | actives 3.5% (n = 310,000); active = well fitted inhibition curve with a large enough effect; inconclusive = small, poorly fitted or top-dose-only effect, or another doubt; inactive = no such curve, though single readings can be large or run the other way;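 also: the enzyme is Sfp with the accession as filed and its product quenches rhodamine fluorescence; potency is read from the fitted curve at half-maximal effect; 0% = enzyme reaction without inhibitor and -100% = no enzyme wells; top concentration of the series not given in the record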
#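 Reaction rates are the 30-min fluorescence difference (ex 525, em 598 nm) in wells containing 15 nM Sfp, 5 uM rhodamine-CoA and 12.5 uM BHQ-2-YbbR at pH 7.6 with 10 mM MgCl2.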
# ClpP mod = qHTS Assay for Activators of ClpP. purified B. subtilis ClpP, FRET peptide cleavage, 20 min. Potency, µM (highest dose often 57.5 µM), for inactives: at the top dose activity change, negative = active. actives 1.9% (n = 340,000); active = well fitted falling curve with a large enough effect; inconclusive = small, poorly fitted or top-dose-only effect; inactive = no such curve, though single readings can be large or run the other way; also: potency is read from the fitted curve at half-maximal effect; the source files actives as falling curves though it sought activators and does not explain the sign; nearly all actives have a fitted effect of over 65% in size; many hits overshoot -100%
# Target sequence (P80244 whole entry, looked up): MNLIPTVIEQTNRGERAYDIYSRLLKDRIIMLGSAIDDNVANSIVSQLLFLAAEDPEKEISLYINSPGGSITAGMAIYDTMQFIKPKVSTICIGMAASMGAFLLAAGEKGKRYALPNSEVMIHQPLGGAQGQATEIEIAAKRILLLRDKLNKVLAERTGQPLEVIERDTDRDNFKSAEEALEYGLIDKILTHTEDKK
#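 Buffer: 100 mM Tris/HCl pH8, 100 mM KCl, 0.05% low protease BSA, 2.5% glycerol, 0.01% Tween-20. ClpP 10 microg/mL final; 20 min RT; delta FRET normalized to ADEP and DMSO controls.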
# D2 ag = agonists of human D2 dopamine receptor (beta-arrestin). AID 624465. activation, % (concentration not given with the values). P14416. actives 0.084% (n = 360,000). DiscoveRx PathHunter D2 beta-arrestin, luminescence, 90 min; 100% = 57 uM dopamine signal; in the data active = activation above about 40%; inconclusive = about 15% to 40%; inactive = below about 15%; also: compound concentration not given in the record; the text of the record calls up to 30% inactive
# Target sequence (P14416 whole entry, looked up): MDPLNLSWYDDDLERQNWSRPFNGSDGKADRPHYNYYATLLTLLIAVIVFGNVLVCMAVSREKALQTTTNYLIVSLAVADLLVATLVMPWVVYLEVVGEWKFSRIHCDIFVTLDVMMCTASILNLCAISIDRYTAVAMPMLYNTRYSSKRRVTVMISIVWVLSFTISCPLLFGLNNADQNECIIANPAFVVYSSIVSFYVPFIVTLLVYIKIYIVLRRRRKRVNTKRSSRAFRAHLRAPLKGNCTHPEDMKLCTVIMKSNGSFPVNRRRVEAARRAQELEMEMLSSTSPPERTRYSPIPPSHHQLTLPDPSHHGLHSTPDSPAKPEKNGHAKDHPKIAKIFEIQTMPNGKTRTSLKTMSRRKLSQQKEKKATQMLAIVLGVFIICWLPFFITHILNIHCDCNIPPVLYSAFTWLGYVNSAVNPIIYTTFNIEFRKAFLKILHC
#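 DiscoveRx PathHunter D2 beta-arrestin cells (2,100/well) attached overnight, then compound-stimulated 90 min at 37 C in HBSS/10 mM HEPES/0.1% Tween-20 buffer; beta-galactosidase complementation read by luminescence after 1 h at ambient temperature. Dopamine 57 uM final (EC100) as control.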
# PINK1 modulator = modulators of PINK1 expression | actives 0.2% (n = 410,000) | Potency, µM (series often up to 76.6 µM), for the others: at the highest dose activation (PINK1 increase), most hits filed as activators | AID 624263 | PINK1 immunofluorescence, high-content cytometry, 24 h; active = well fitted activation curve with a large enough effect; inconclusive = small, poorly fitted or top-dose-only effect; inactive = flat fitted curve, though single readings scatter; cell line not stated here;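 also: potency is read from the fitted curve at half-maximal effect; % of control where 0% means no effect; nearly all actives have a fitted effect of over 65% in size; a mitochondrial uncoupler was the plate control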
#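 Decision-based qHTS: stable cells, 24 h exposure to five compound concentrations, CCCP as control. Fixed cells stained for PINK1 plus nuclear, mitochondrial and cell markers, cytometer read.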
# gsp ag = agonists of gsp mutant (McCune-Albright syndrome) | gsp mutant cells, cAMP HTRF, 30 min; control for the full effect not named in the record | Potency, µM (highest dose often 76.9 µM), inactives show at the top dose activation (cAMP increase), most hits filed as activators | actives 0.13% (n = 340,000); active = well fitted activation curve with a large enough effect; inconclusive = small, poorly fitted or top-dose-only effect, or another doubt; inactive = no such curve, though single readings can be large or run the other way; cell line not stated here;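 also: phosphodiesterase inhibitor Ro 20-1724 added with compounds to block cAMP breakdown; potency is read from the fitted curve at half-maximal effect; nearly all actives have a fitted effect of over 60% in size; about a fifth of the inactives were tested at one dose only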
#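 Cells stably selected in G418 were plated at 2000/well, grown 16-24 hr, then given compounds in DMSO with the PDE inhibitor […] (300 uM solution added) for 30 min at 37C; cAMP was read by HTRF.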
# gsp antag = antagonists of gsp mutant (McCune-Albright syndrome); Potency, µM (top dose mostly 76.9 µM), for inactives: top-dose activity change, negative = inhibition, actives largely listed as inhibitors; gsp-mutant cells, cAMP HTRF, 30 min; control for the full effect not named in the record; actives 0.4% (n = 340,000); active = falling curve of any shape with a large fitted effect; inconclusive = falling curve, mostly with a smaller effect; inactive = flat or rising curve; cell line not stated here;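 also: intracellular cAMP measured with PDE inhibitor Ro 20-1724 present during compound exposure; potency is read from the fitted curve at half-maximal effect; % is scaled to controls: 0 for no effect and ±100 for the full control effect; nearly all actives have a fitted effect of over 65% in size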
#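 HTRF cAMP measurement after 30 min RT detection following 30 min, 37C compound treatment alongside […] (added as 300 uM solution) in G418-selected cells seeded at 2000/well and grown 16–24 h.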
# Menin-MLL FL inh = inhibitors of human menin-MLL interaction, wild-type MLL peptide. Fluorescence polarization, fluorescein-MLL peptide displacement from menin. FP activity change, % at 61.4 µM. 290,000 tested, under 10 active; inconclusive = falling polarisation curve, or a change in total fluorescence; inactive = total fluorescence flat and polarisation flat or rising; no compound was filed as active; the % refers to the polarisation; negative = inhibition;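 also: % of control where 0% means no effect; inhibitors lower the polarisation; unlabelled MLL peptide was the positive control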
# * = called active by the depositor; ? = inconclusive; nt = not tested or not shown; [ ] = dose if it differs, or a comment. Outcome played no part in choosing rows, and some 5.1% of all compounds hit somewhere here.
SMILES,Sfp inh,ClpP mod,D2 ag,PINK1 modulator,gsp ag,gsp antag,Menin-MLL FL inh
O=C(CSC1=NCCN1)Nc1ccccc1[N+](=O)[O-],-11%,nt,-8.9,-0.6%,2%[15.4 µM],12%,-4.5
N#C/C(=C\c1ccc(O)c(O)c1)C(=O)N1CCCC1,63µM*,1.1%,-6.9,0.4%,-8%,-7%,?
CCOc1ccc(CNC(=S)N/N=C/c2ccc(OC)c(OC)c2)cc1,-7%,-3.3%,5.5,3.2%,5%,25%,-0.2
Cc1noc(/C=C/N(C)C)c1S(=O)(=O)N1CCCC(C(=O)N2CCCCC2)C1 (configuration not stated),7%,2.9%,-2.1,6.0%,-11%,-10%,4.4
CCOC(=O)c1c(C)[nH]c(C(=O)CSc2ccc(Cl)cc2)c1C,5%,-2.4%,13,22%[38.3 µM],3%,7%,3.9
O=C(COC(=O)C1CC2C=CC1C2)Nc1ccccc1F (configuration not stated),-7%,nt,-1.7,-0.4%,1%[15.4 µM],11%,0.8
Cc1ccc(-n2ncc3c(SCC(=O)NNC(=O)c4ccco4)ncnc32)cc1,13%,nt,1.3,1.0%,-2%[15.4 µM],-7%,-1.4
CCc1ccc2c(CN3CCN(S(=O)(=O)c4cccs4)CC3)cc(=O)oc2c1,8%,32µM*,1.7,1.2%,-3%,-9%,7.3
CC1Cc2ccccc2N1S(=O)(=O)c1cccc(C(=O)NC2CC2)c1 (configuration not stated),-22%,0.5%,0.2,2.7%,-23%,-1%,-0.3
CN(C)CCCNC(=O)c1ccccn1,10%,-2.8%,-3.2,-8.0%[38.3 µM],-44%[inhibitor],0%,2.0
CC(=O)N1C[C@H]2CON(C)[C@H]2C[C@H]1c1ccc(-c2ccccc2)cc1,nt,-2.9%,-2.8,2.6%,-105%[inhibitor],nt,nt
COc1ccccc1N1C[C@@H]2C[C@@H](c3ccco3)N3CCC[C@@]23C1=O,?,nt,-1.5,0.3%,-46%[inhibitor],-6%,-0.2
CCSC1=C(C#N)C(c2cccc(OC)c2)CC(=O)N1 (configuration not stated),9%,0.6%,3.5,-1.4%,3%,-1%,1.2
C#CCNc1nc(CC)nc2c1nnn2Cc1ccccc1F,-2%,0.8%,-0.8,1.1%,2%,9%,-0.4
Cc1cc(C)cc(OCC(=O)OC(C)C(=O)Nc2ccc(Cl)cn2)c1 (configuration not stated),nt,nt,-3.6,2.6%,-10%[15.4 µM],3%,nt
CN(C)C(=O)c1cc(S(=O)(=O)N(C)C)c(Cl)cc1N1CCCC1,5%,0.1%,-2.2,?,-1%,1%,-7.0
CC(=O)CC(c1ccccc1)S(=O)(=O)c1ccc(C)cc1 (configuration not stated),12%,-2.0%,4.0,-2.0%,3%,-15%,-1.1
Cc1ccccc1C(=O)OCC(=O)NCc1ccco1,nt,-1.3%,0.5,-0.8%,1%[15.4 µM],1%,nt
COc1ccc(OC)c(NC(=O)CCN2C(=O)c3ccccc3C2=O)c1,5%,0.7%,1.0,0.7%,-15%,-17%,3.7
COCCNC(=S)N/N=C(\C)c1ccc2cc(OC)ccc2c1,2%,-21%,-5.1,2.2%,0%,?,0.7
COc1cc2c(cc1OC)CN(c1ccc(C(N)=O)cc1[N+](=O)[O-])CC2,-7%,nt,1.9,0.3%,0%,14%,-19
Cc1ccc(CNCCCSc2nc(C)cc(C)n2)cc1,16%,1.2%,-3.5,0.1%,-18%,1%,-2.8
COc1ccc(-c2c[n+]3c(n2-c2ccc(C)cc2)CCCCC3)cc1,6%,nt,-3.7,?,1%,-17%,-0.4
O=C(O)c1ccc(C(S(=O)(=O)c2ccccc2)S(=O)(=O)c2ccccc2)cc1,nt,-0.7%,-2.5,0.0%,?,nt,nt
Clc1ccccc1CSc1nnc(-c2ccco2)c(-c2ccco2)n1,20µM*,-3.1%,0.8,-1.9%[38.3 µM],-1%,-16%,?
# More results:
SMILES,Sfp inh,ClpP mod,D2 ag,PINK1 modulator,gsp ag,gsp antag,Menin-MLL FL inh
COc1ccc(CCNC(=O)C(=O)Nc2ccc3c(c2)OCO3)cc1OC,9%,nt,-4.8,0.2%,12%[15.4 µM],3%,0.5
COc1ccc(-c2cn(CCCOCc3ccccc3)nn2)cc1,5%,-0.4%,0.0,-0.2%,nt,-12%,11
CCC(=O)Nc1c(C)ccc2nsnc12,2%,-0.8%,-0.2,-1.2%,-44%[inhibitor],1%,-0.2
COc1ccccc1N1CCN(C(=O)c2cccs2)CC1,5%,2.5%,1.6,0.0%,-39%[inhibitor],8%,0.6
CCN(CC)C(=O)/C(=C/c1ccc2c(c1)OCO2)NC(=O)c1ccc(Br)cc1,-1%,nt,-3.8,1.8%,-3%[15.4 µM],-5%,-1.4
COCCCNC(=O)CNC(=O)c1cn(-c2ccccc2OC)c(=O)c2ccccc12,13%,-19%,-0.6,1.1%,?,7%,-1.5
CCOc1ccc(-c2nc3n(c(=O)c2C#N)CCS3)cc1,3%,nt,-0.4,7.1%,7%[15.4 µM],5%,7.7
CC(C)(C)c1cnnn1-c1ccc(/C=N/Nc2ccc([N+](=O)[O-])cc2)cc1,-6%,-2.4%,-5.3,4.0%,?,-18%,18
COc1ccc(-c2nc3ccccc3n2OCC(=O)O)cc1,24%,nt,-3.6,3.3%,-12%[15.4 µM],3%,-4.0
COc1ccc2nc(/C(C#N)=C\c3ccc(C(=O)O)cc3)[nH]c2c1,-19%,nt,?,?,?,-1%,?
CS(=O)(=O)NCC(c1cccnc1)N1CCN(c2ccc(F)cc2)CC1 (configuration not stated),8%,1.9%,-2.6,0.1%,-9%,11%,0.6
N#CC1=C(N)Oc2n[nH]c(-c3ccccc3)c2C1c1cccc(OC(=O)N2CCOCC2)c1 (configuration not stated),3%,-2.1%,-1.7,-1.0%,-3%,-10%,1.9
CCOC(=O)c1ccccc1NC(=O)C1CC(=O)N(C(C)(C)C)C1 (configuration not stated),18%,-19%,-5.6,-0.2%,-39%[inhibitor],-10%,-0.5
CC(=O)c1cccc(NC(=O)c2c(C)nn(-c3ccccc3)c2Cl)c1,12%,-0.4%,1.3,-1.1%,6%,-29%,0.8
O=C(c1ccccc1)N1N=C(c2ccccc2)CC1(O)C(F)(F)F (configuration not stated),0%,0.7%,1.9,1.7%,-10%,-8%,3.3
CCOC(=O)c1ccc(NC(=S)N(CCN(C)C)C(C)c2ccncc2)cc1 (configuration not stated),15%,-0.4%,3.8,0.5%,0%,-5%,-1.7
CCc1nnc(NS(=O)(=O)c2ccc(NC(=O)/C=C/c3ccc(F)cc3)cc2)s1,24%,-0.7%,1.0,-0.3%,?,-11%,-2.6
C/C(CC(=O)NC12CC3CC(CC(C3)C1)C2)=N\NC(=O)c1ccc(C)cc1,13%,nt,-0.7,1.9%,-6%[15.4 µM],nt,3.7
O=C(COC(=O)c1cc(S(=O)(=O)N2CCOCC2)c(Cl)cc1Cl)NCc1ccco1,nt,nt,0.1,3.2%,-8%,-12%,nt
NC(=O)COC(=O)c1ccc(-c2ccc(O)cc2)cc1,21%,-20%,-1.0,0.6%,34%,3%,-1.1
O=C(CSc1nc2sc3c(c2c(=O)n1-c1ccccc1)CCCC3)N/N=C/c1ccccc1C(=O)O,30%,4.2%,-0.7,1.3%,-10%,4%,14
CCOc1ccccc1N(CC(=O)NCCSc1ccccn1)S(=O)(=O)c1ccccc1,9%,nt,0.6,2.1%,0%[15.4 µM],-4%,5.3
O=C(CCSc1ccccc1)NCCSCc1ccco1,50µM*,-1.6%,-2.6,1.6%,-11%,-5%,3.1
CN(C)S(=O)(=O)c1ccc(C(=O)OCC(=O)Nc2sc3c(c2C#N)CCCCC3)cc1,14%,nt,-4.2,-1.5%,1%[15.4 µM],-11%,4.3
O=C(CCCCCn1c(=S)[nH]c2ccc(N3CCOCC3)cc2c1=O)NCc1cccc(Cl)c1,-8%,nt,7.7,9.4%,-6%[15.4 µM],-13%,-3.6
# Next part.
SMILES,Sfp inh,ClpP mod,D2 ag,PINK1 modulator,gsp ag,gsp antag,Menin-MLL FL inh
O=C(CCCN1C(=O)/C(=C\c2ccccc2)SC1=S)Nc1ccc(O)cc1C(=O)O,9%,0.4%,1.2,-0.1%,-59%[inhibitor],-7%,nt
O=C(NC(=S)Nc1ccc(N2CCCCC2)c(Cl)c1)c1ccc2c(c1)OCCO2,11%,-0.4%,-2.9,4.8%,4%[15.4 µM],-6%,3.6
Nc1c(C(=O)Nc2ccccc2)sc2nc(-c3ccco3)ccc12,7.9µM*,16µM*,-0.5,0.4%,?,14%,?
CCOC(=O)c1ccc(Oc2cc(C)nc(SC)n2)cc1,2%,-0.1%,1.4,19%[38.3 µM],16%,1%,2.9
Cc1ccc(S(=O)(=O)Nc2cccc(C(=O)N3CCC(C(N)=O)CC3)c2)cc1,nt,3.1%,-3.7,0.0%,1%,13%,nt
CCOC(=O)/C(=C\c1ccc(N2CCC(c3ccccc3)=N2)cc1)C(C)=O,nt,2.6%,0.2,-2.2%,-4%,6%,nt
COc1cc(OC)cc(C(=O)NCC2CCCN(Cc3cccc(C(C)=O)c3)C2)c1 (configuration not stated),13%,0.1%,-5.6,3.1%,-25%,1%,0.3
C/C(=N\NC(=O)c1cccc(O)c1)c1ccc(NC(=O)Cc2ccccc2)cc1,7%,2.1%,-2.0,1.1%,2%,-7%,nt
CCn1cc(C(=O)NCc2ccccc2OC)c(=O)c2cc(S(=O)(=O)N(C)C)ccc21,-6%,-4.5%,1.7,-3.6%,-30%,-15%,-2.6
CC(=O)c1ccc(N2CCN(C(=O)CCc3ccccc3)CC2)cc1,14%,-4.8%,3.0,0.3%,-26%[15.4 µM],-6%,9.6
COc1ccc(NC(=O)c2cc(S(=O)(=O)N3CCCCC3)ccc2OC)cc1,-1%,-0.7%,0.5,-0.2%,15%,-14%,-9.5
O=C(Nc1cccc(S(=O)(=O)N2CCCCC2)c1)c1cnccn1,10%,nt,-0.9,1.4%,16%[15.4 µM],-3%,0.7
CC(C)Oc1ccc(C(=O)Nc2nnc(C3=COCCO3)o2)cc1,nt,0.1%,-5.4,1.5%,-1%[15.4 µM],6%,nt
C=CCN(C(=O)CN1CCCCC1)c1nc(-c2ccccc2)cs1,5%,nt,0.6,6.0%,11%[15.4 µM],-3%,4.4
